Bioassay records as filed in PubChem BioAssay.
A1 inh: inhibitors of the anti-apoptotic protein A1, read as caspase activation. MEF A1-2A-BIM cells, Caspase-Glo 3/7 luminescence, 3 h; percent of clofoctol response, vehicle zero. caspase activation, % (no concentration beside the values). 0.066% of 330,000 active. AID 2462;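 active = over half of replicate activation scores above 10%, or exactly half above 10 with the replicate mean above 10; inconclusive = replicate mean below 10 yet half the replicates above 10; inactive = over half of replicates below 10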;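 also: wells of about 30 µL received 50 nL stock; many hits fall short of the cut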
T cruzi repl: T. cruzi replication inhibition. inhibition, % (test concentration not listed). T. cruzi beta-gal in NIH3T3, luminescence, 90 h. 1.4% of 300,000 active;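 active = mean inhibition across valid replicates above about 55%, limit read from the data; inconclusive = mean below that limit but half or more replicates reach it; inactive = mean below it, under half of replicates reach it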;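 also: signal also drops with host cell toxicity which is not excluded here; 0% = plate median of DMSO wells and 100% = zero luminescence signal; higher percent means less beta-gal luminescence so fewer parasites; stock transfer was 50 nL into about 50 µL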
LANA-H2B inh: blocks KSHV LANA binding to histone H2A/H2B. Q9QR71. cell-free LANA-H2A/H2B peptide, fluorescence polarization. inhibition, % (no concentration beside the values). 0.6% of 320,000 active. AID 2629; in the data active = inhibition mostly above about 10%, no sharp cut-off; inactive = mostly below about 6.7%;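 also: stock transfer was 7.5 nL into about 10 µL; 0% = median of vehicle wells and 100% = median of positive control wells; one replicate is shown; the record names a cut of 25% in any replicate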
Calb FLC: C. albicans growth modulation with fluconazole; C. albicans CaCi-2 (fluconazole-resistant clinical isolate) + fluconazole, Alamar Blue growth, 48 h; growth inhibition, % (test concentration not listed); 0.57% of 300,000 active; AID 1979;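 active = most replicates above 75%; inconclusive = exactly half above 75%; inactive = most below 75%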;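 also: all wells also contain fluconazole at 8 µg/ml as a sub-toxic cotreatment; 0% = median of DMSO wells and 100% = median of geldanamycin control wells; wells of about 8 µL received 7.5 nL stock; the first replicate is given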
UCH37 DUB inh: blocks the human deubiquitinase UCH37; purified proteasome/UCH37, Ub-AMC cleavage fluorescence; inhibition, % (test concentration not listed); 0.33% of 330,000 active; AID 588478;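 active = mean of two replicates above 20%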;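 also: 0% = compound-free wells with enzyme and 100% = wells lacking proteasome; stock transfer was 100 nL into about 20 µL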
Target sequence (Q9Y5K5 whole entry, looked up): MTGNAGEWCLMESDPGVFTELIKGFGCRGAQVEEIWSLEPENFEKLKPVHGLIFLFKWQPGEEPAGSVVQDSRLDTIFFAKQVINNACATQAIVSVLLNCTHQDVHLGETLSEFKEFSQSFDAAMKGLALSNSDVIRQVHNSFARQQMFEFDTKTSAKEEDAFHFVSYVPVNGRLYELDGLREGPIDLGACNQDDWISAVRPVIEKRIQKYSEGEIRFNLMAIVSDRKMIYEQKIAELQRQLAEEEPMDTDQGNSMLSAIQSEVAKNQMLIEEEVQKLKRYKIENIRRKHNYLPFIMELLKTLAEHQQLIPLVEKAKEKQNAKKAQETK
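System: Proteasome-associated human UCH37 deubiquitinase; Input: 0.15 nM proteasome in added enzyme buffer; Also added: Ub-AMC substrate from 1 µM stock; Incubation: 30 min compound-proteasome preincubation then 25 min substrate reaction, room temperature; Detection: fluorescence, ex 355 nm, em 460 nm; Read-out: % inhibition of Ub-AMC cleavage fluorescence; Benchmarks: no-proteasome and no-compound wells.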
RanGTP-Impb inh: disruptors of Ran-importin-beta complex formation – biochemical, FRET, CFP-Ran, YFP-importin-beta, homogeneous, primary screen; AID 2216; cell-free CFP-Ran/YFP-importin-beta FRET ratio; 1.1% of 300,000 active; inhibition, % (concentration not given with the values);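 active = most replicates above 15%; inconclusive = exactly half above 15%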;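 also: 0% = DMSO wells and 100% = Ran loaded with GDP instead of GTP; wells of about 40 µL received 100 nL stock; the first replicate is given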
B2AR ag: human beta-2 adrenergic receptor agonism by FAP; Am2.2-beta2AR cells, FAP receptor internalization, flow cytometry; reference of the scale not given here; AID 504454; response, % (test concentration not listed); 0.43% of 340,000 active; P07550;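 active = response above a set limit, near 3 SD of response in nonfluorescent compounds, cut at about 42% in these data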;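 also: stock transfer was 100 nL into about 11 µL; a reference agonist was the positive control; negative values mostly stem from fluorescent compounds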
Target sequence (P07550 whole entry, looked up): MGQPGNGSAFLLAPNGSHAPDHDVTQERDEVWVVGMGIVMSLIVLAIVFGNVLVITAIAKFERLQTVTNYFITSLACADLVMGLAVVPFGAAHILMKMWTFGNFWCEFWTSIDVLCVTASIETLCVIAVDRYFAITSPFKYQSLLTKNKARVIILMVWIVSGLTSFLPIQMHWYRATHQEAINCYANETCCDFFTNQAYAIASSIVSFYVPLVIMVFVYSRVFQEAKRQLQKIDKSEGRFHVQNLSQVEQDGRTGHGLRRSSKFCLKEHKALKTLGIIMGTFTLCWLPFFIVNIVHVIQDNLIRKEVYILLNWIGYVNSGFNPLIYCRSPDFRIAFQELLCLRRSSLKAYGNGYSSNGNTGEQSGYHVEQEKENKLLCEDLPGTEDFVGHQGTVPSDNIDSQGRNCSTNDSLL
Beta cell apopt: blocks beta cell apoptosis | INS-1E cytokine-induced death, ATP luminescence, 48 h; percent of positive-control rescue, neutral wells zero | protection from apoptosis, % (concentration not given with the values) | 0.8% of 300,000 active;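 active = all replicates at 75% or more, or half of them and the mean; inconclusive = half reach 75% but not the mean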;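 also: 0% = cytokine-treated negative control wells and 100% = positive control rescue; higher means more ATP so stronger rescue from cytokine killing; wells of about 40 µL received 100 nL stock; the first replicate is given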
Active calls of the source: *; ? = inconclusive; . = no result given.

canonical_smiles,A1 inh,T cruzi repl,LANA-H2B inh,Calb FLC,UCH37 DUB inh,RanGTP-Impb inh,B2AR ag,Beta cell apopt
O=C(NCCCN1CCOCC1)c1ccc2c(c1)N(Cc1cccc(Cl)c1)C(=O)CS2,1.7,10,-4.5,-15,2.0,1.3,-7,-1
O=C(NCCCCc1ccccc1)C1CC(c2ccccc2C(F)(F)F)=NO1 (stereo not given),0.4,-9,4.6,-14,-0.3,-1.8,0,-4
CCCCC(=O)Nc1cnc(NC(=O)c2cccs2)cc1C,-4.9,0,3.2,10,-1.0,-0.9,-10,15
COc1ccc(S(=O)(=O)CCC(=O)O)cc1,0.9,.,-8.3,.,4.7,.,-6,-4
O=C(NCCOc1ccccc1F)c1cc(F)c(F)cc1Cl,-0.8,-6,1.5,1,0.5,2.1,-2,0
COc1ccc(Cn2nnnc2C(c2cccs2)N2CCCCCC2)cc1 (stereo not given),-0.2,19,-2.9,-10,0.6,?,5,.
COc1ccc(NC(=O)C2C3C=CC(C3)C2C(=O)NCc2ccco2)cc1 (stereo not given),0.3,3,-5.0,2,0.4,0.0,4,3
CN(Cc1nc2ccccc2c(=O)[nH]1)C(=O)c1cccc(S(=O)(=O)N2CCCCCC2)c1,1.2,.,-1.8,.,0.6,.,-3,-1
Cc1ccsc1/C=N/n1c(-c2ccco2)n[nH]c1=S,1.6,-14,-2.4,29,.,0.8,-10,-8
Cc1cc(N2CCN(c3ccccc3)CC2)nc(N2CCOCC2)n1,-0.4,-6,2.4,40,0.3,?,-2,-2
CCOC(=O)C1(C)NC(c2ccc(OC)cc2OC)C2C(=O)N(CC)C(=O)C21 (stereo not given),0.7,-20,-0.1,-2,2.3,5.2,-4,-6
CC(C)Cc1ccc(CN2CCCC(NC(=O)c3nn(C)c(=O)c4ccccc34)C2)cc1 (stereo not given),.,60*,.,-4,3.9,4.2,13,.
O=C(Cc1c(O)c2ccccc2[nH]c1=O)NCc1ccccc1,-0.4,0,0.0,-4,3.0,-0.9,0,-6
CC(=O)c1cccc(N(C(=O)Cn2nnc3ccccc32)C(C(=O)NCC2CCCO2)c2ccc(N3CCOCC3)cc2)c1 (stereo not given),0.5,-3,-0.7,-13,-1.8,-0.7,2,-6
CC(C)C[C@H](NC(=O)C1CCN(C(=O)[C@H](Cc2ccccc2)NC(=O)OC(C)(C)C)CC1)C(=O)O,-0.8,-5,-1.1,0,4.4,?,-11,-3
CCOc1ccc(CC(=O)NC2CC(C)(C)N(C)C(C)(C)C2)cc1OCC,1.2,.,.,.,1.7,.,-3,6
COc1ccc(Cl)cc1C(=O)NNC(=S)NC1CCCC1,-0.8,-6,-1.1,-25,2.4,-3.1,15,2
Cc1c(-c2ccco2)[n+](=O)c2c(n1[O-])CCC2,-2.2,-4,3.3,-1,5.2,?,1,-3
COc1ccc(OC)c(NC(=O)NCc2cccnc2)c1,0.9,1,2.7,7,-0.1,-2.3,-9,-4
CC(=O)Nc1ccc(NC(=O)CSc2nnc3c4ccccc4n(C)c3n2)cc1,0.3,9,5.9,-1,0.5,-0.1,-8,9
Cc1nc(C)c(-c2nnc(-c3ccccc3Cl)o2)cc1C(=O)NN,-0.3,-13,5.3,-1,-0.2,-0.4,1,-3
C/C(=N\NC(=O)c1ccc(C)cc1)c1c(C)[nH]n(-c2ccccc2)c1=O,0.3,51,-1.7,0,.,0.3,0,91*
COc1ccc(/C=C(\C#N)C(=O)NC(C)c2ccccc2)cc1O (stereo not given),0.1,-3,7.8,-9,6.9,6.5,7,-1
COC(=O)CC1COc2ccccc2N1C(=O)c1cc(OC)c(OC)c(OC)c1 (stereo not given),-0.5,0,-0.6,-7,2.4,-0.2,4,-1
Cc1cc(C(=O)C(C)Sc2cccc[n+]2[O-])c(C)n1-c1ccc(Cl)cc1 (stereo not given),0.3,-4,-0.6,1,7.1,3.0,-8,7
Cc1cc(=O)oc2cc(OC(C)C(=O)O)c(Cl)cc12 (stereo not given),1.4,-12,2.0,-5,-78,-2.0,-11,-8
O=C(COc1ccc(S(=O)(=O)NC2CCCCC2)cc1Cl)Nc1ccc2c(c1)OCO2,1.6,-5,7.7,-26,5.8,5.1,-4,0
COc1ccc(Cl)cc1NC(=O)c1ccc2c(SCC(=O)O)c3c(nc2c1)CCCC3,0.4,15,-4.1,-6,2.6,2.0,11,-5
N#Cc1ccccc1S(=O)(=O)c1ccccc1C(=O)Nc1ccccc1,0.1,-13,-1.6,-17,0.9,3.5,3,-3
Cc1ccccc1Cc1ccc(Cl)nn1,0.3,6,-7.7,-4,0.3,?,8,.
CSCc1cc(N2CCOCC2)nc(SCc2ccc(Cl)c(Cl)c2)n1,0.0,30,-3.7,18,-1.7,0.7,8,3
CC(=O)NCCNC(=O)c1ccc(CSc2nc3ccccc3s2)cc1,-9.1,-8,0.3,7,.,7.6,-7,-6
CCOC(=O)c1[nH]c2ccc(F)cc2c1NC(=O)C1=COCCO1,-0.4,9,-4.1,46,-2.1,2.0,-6,-4
CC(C)c1nc2n[nH]c(N)c2c2c1CCC2,0.2,0,2.9,-9,5.0,-4.4,6,-1
Cc1ccccc1N1CCN(c2ncnc3c2cnn3Cc2ccc(Cl)cc2)CC1,-0.4,45,0.4,?,5.3,5.3,44*,8
COc1ccc(/C=N/OCC(=O)NCC(C)C)c(OC)c1,0.1,-8,-1.8,-2,.,1.0,-2,8
O=C1C(Cl)=C(N2CCOCC2)C(=O)N1CCc1ccccc1,0.2,12,1.8,-26,1.7,?,-5,-11
CC(C)C(=O)Nc1ccc(C(=O)NNC(=O)CCc2ccccc2)cc1,0.6,-11,-2.4,3,1.1,0.1,-4,-2
CCCCCCCNC(=O)C1(CC2CC(c3cccc(Br)c3)=NO2)CCN(C(=O)C2(C)CC2)CC1 (stereo not given),-0.8,.,-0.9,.,-4.0,.,18,-2
O=C(O)CN1C(=O)S/C(=C\c2cccnc2)C1=O,1.6,1,-1.5,8,6.8,-2.1,5,1
CCN1CCN(C(=O)c2ccc3c(=O)n(CCc4ccccc4)c(=O)[nH]c3c2)CC1,-0.7,-14,6.9,-11,-1.4,-1.4,1,-2
COc1ccccc1NS(=O)(=O)c1cc([N+](=O)[O-])ccc1N/N=C/c1c(C)[nH]c2ccccc12,0.7,43,-2.4,25,.,-37,-544,.
O=C(NCCN1CCN(c2ccccc2)CC1)c1cccn2c(=O)c3cc(Cl)ccc3nc12,0.1,25,1.5,23,-2.8,8.2,4,8
CN1CCC(N(C)C(=O)c2cc(-c3ccc(F)cc3)nc3ccccc23)CC1,-0.8,.,-1.0,.,-15,.,0,-7
COc1ccc(-c2nc(NC(=O)C3CC(=O)N(c4ccc5c(c4)OCCO5)C3)sc2C)cc1 (stereo not given),0.7,-12,2.6,0,-0.3,0.6,17,43
COc1ccc(NC(=O)CSc2nc3ccccc3c(=O)[nH]2)cc1S(N)(=O)=O,0.1,.,-0.1,.,4.0,.,-7,0
COC(=O)c1cc2ccsc2n1CC(=O)N(C)C1CCCCC1,0.0,-4,-2.3,-5,0.9,0.2,-2,-13
CCOc1ccc(NS(=O)(=O)c2c(C)nc3sc(CC)nn3c2=O)cc1,0.1,.,1.4,.,5.4,.,-1,-3
CN(C)C(/C=C/Nc1ccc(C#N)cc1)=C(C#N)C#N,0.0,-17,4.2,-1,14,0.2,6,.
c1ccc(-c2ccc(Oc3cc(N4CCOCC4)nc(-c4ccccc4)n3)cc2)cc1,-0.5,-1,-5.7,-18,-0.2,-1.8,0,4
O=C(/C=C/c1cc[n+](CC(=O)c2ccc3cccc4c3c2CC4)cc1)c1ccc2cccc3c2c1CC3,-0.6,63*,2.0,6,-0.1,1.0,74*,5
O=C(Cn1c(SCc2ccccc2)nc2ccccc21)N1CCOCC1,0.4,-11,-0.5,2,2.8,3.4,-4,-1
O=C(OCC(=O)N1CCCC1)c1cc(F)c(F)cc1Cl,-0.9,1,-3.8,-18,3.8,5.4,6,-2
O=C(CSc1nccn1-c1ncc(C(F)(F)F)cc1Cl)c1ccc(Br)cc1,0.4,3,2.3,4,0.1,7.2,-4,8
O=C(Nc1ncn[nH]1)c1cc([N+](=O)[O-])ccc1Cl,-0.3,-5,5.4,4,1.9,1.7,4,3
Cn1cc(C(=O)N2CCc3ccccc32)cn1,-4.2,0,-2.4,-7,2.4,-5.9,-3,-6
O=C(C1CCN(S(=O)(=O)c2cccc3cccnc23)CC1)N1CCCCC1,-0.5,-5,-3.0,30,2.2,0.2,-2,-5
COc1cccc(-c2cc(C(=O)Nc3cccnc3)no2)c1,-5.2,-8,-6.7,16,1.4,-1.9,-18,-3
COc1cc2cnc(-c3ccccc3)c(-c3cccc(C(F)(F)F)c3)c2cc1OC,?,.,7.8,.,.,.,11,4
COc1ccc(N2Cc3ccccc3C2=O)cc1,-11,-10,-7.0,-12,-2.2,0.1,-4,30

Later entries:
canonical_smiles,A1 inh,T cruzi repl,LANA-H2B inh,Calb FLC,UCH37 DUB inh,RanGTP-Impb inh,B2AR ag,Beta cell apopt
CC(C)COC(=O)C1C2C=CC3(CN(C(C)c4ccc(Br)cc4)C(=O)C13)O2 (stereo not given),0.5,8,-2.2,-3,2.8,2.8,6,-4
Cc1ccc(S(=O)(=O)N2CCOC2CNC(=O)C(=O)NCc2cccnc2)cc1 (stereo not given),-0.7,-22,-1.4,2,3.2,1.7,-3,1
N#Cc1ccc(C(=O)Nc2cccc3cccnc23)c(F)c1,-0.1,5,-4.8,10,-27,6.3,8,-2
CN(C)S(=O)(=O)c1ccc(-c2csc(N/N=C/c3ccc(O)cc3)n2)cc1,-0.7,21,-5.3,4,.,-2.1,47*,14
CN(Cc1ccc(Cl)cc1Cl)C(=O)CNC(=O)c1ccc2c(c1)OCO2,0.2,1,4.0,-2,1.3,1.6,0,-2
COC(=O)C(NNc1ccccc1)(NC(=O)c1ccccc1F)C(F)(F)F (stereo not given),0.4,-12,0.5,-11,0.0,8.3,10,-7
C[C@H](CO)N1C[C@H](C)[C@@H](CN(C)Cc2ccc3c(c2)OCO3)Oc2c(NS(C)(=O)=O)cccc2C1=O,1.3,.,-73,.,-0.4,.,9,3
Cc1ccc(-n2nnnc2CCl)cc1,.,-6,.,?,1.3,0.1,7,.

Entries of single compounds, looked up by structure:
`COc1ccc(NC(=O)CSc2nc3ccccc3c(=O)[nH]2)cc1S(N)(=O)=O` as listed: A1 inh = 0.1; T cruzi repl = .; LANA-H2B inh = -0.1; Calb FLC = .; UCH37 DUB inh = 4.0; RanGTP-Impb inh = .; B2AR ag = -7; Beta cell apopt = 0
`CCOC(=O)c1[nH]c2ccc(F)cc2c1NC(=O)C1=COCCO1` as listed: A1 inh = -0.4; T cruzi repl = 9; LANA-H2B inh = -4.1; Calb FLC = 46; UCH37 DUB inh = -2.1; RanGTP-Impb inh = 2.0; B2AR ag = -6; Beta cell apopt = -4
